Screening results from PubChem.
ClpP mod – qHTS Assay for Activators of ClpP; Potency, µM (top dose mostly 57.5 µM), for inactives: at the highest dose activity change, negative = active; AID 651965, 2013; purified B. subtilis ClpP, FRET peptide cleavage, 20 min; 340,000 compounds, 1.9% hits; active = well fitted falling curve with a large enough effect; inconclusive = small, poorly fitted or top-dose-only effect; inactive = no such curve, though single readings can be large or run the other way; further: potency means the concentration at half of the fitted maximal effect; the source files actives as falling curves though it sought activators and does not explain the sign; nearly all actives have a fitted effect of over 65% in size; many hits overshoot -100%
Target sequence (P80244 whole entry, looked up): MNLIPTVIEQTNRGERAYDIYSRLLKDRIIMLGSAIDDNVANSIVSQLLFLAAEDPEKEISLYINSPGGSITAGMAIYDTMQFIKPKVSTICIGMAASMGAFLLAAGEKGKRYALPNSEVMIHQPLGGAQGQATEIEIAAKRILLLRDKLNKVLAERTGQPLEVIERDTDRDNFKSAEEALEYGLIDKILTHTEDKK
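FRET quenching reversal measured ClpP activation: 10 microg/mL B. subtilis ClpP at pH 8 with the FRET-FV decapeptide, read at 430 nm after 320 nm excitation. The 20-min minus 0-min signal was scaled between DMSO/no-enzyme wells and ADEP (5.8 microM final).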
Menin MLL FP FL – qHTS Assay for Inhibitors Targeting the Menin-MLL Interaction in MLL Related Leukemias: Competition With Fluorescein Labeled MLL-derived Peptide. FP activity change, % at 61.4 µM. 290,000 tested, under 10 active. Fluorescence polarization, fluorescein-MLL peptide displacement from menin. AID 1766, 2009; inconclusive = falling polarisation curve, or a change in total fluorescence; inactive = total fluorescence flat and polarisation flat or rising; no compound was filed as active; the % refers to the polarisation; negative = inhibition;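 further: % of control where 0% means no effect; inhibitors lower the polarisation; unlabelled MLL peptide was the positive control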
gsp antagonist – qHTS for Antagonists of gsp, the Etiologic Mutation Responsible for Fibrous Dysplasia/McCune-Albright Syndrome: qHTS | gsp-mutant cells, cAMP HTRF, 30 min; control for the full effect not named in the record | Potency, µM (highest dose often 76.9 µM), without a hit: at the highest dose activity change, negative = inhibition, hits mostly inhibitors | 340,000 compounds, 0.4% hits | AID 624288, 2012; active = falling curve of any shape with a large fitted effect; inconclusive = falling curve, mostly with a smaller effect; inactive = flat or rising curve; cell line not stated here;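 further: intracellular cAMP measured with PDE inhibitor Ro 20-1724 present during compound exposure; potency means the concentration at half of the fitted maximal effect; on the % scale 0 is the no-effect control and ±100 the full control effect; nearly all actives have a fitted effect of over 65% in size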
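G418-selected cells were plated in DMEM/10% FBS for 16-24 h at 37C, then treated with compounds plus the PDE inhibitor […] (300 uM solution added) for 30 min at 37C. Intracellular cAMP was measured by HTRF after 30 min lysis at room temperature.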
TRPML1 blocker – qHTS for Inhibitors of the Human Mucolipin Transient Receptor Potential 1 (TRPML1); Mucolipin-1 (Homo sapiens), Q9GZU1; TRPML1-inducible cells, Ca2+ dye fluorescence, FDSS; hits give low values; inhibition of EC80 agonist-evoked calcium signal; activity change, negative = inhibition, % (test concentration not listed); 390,000 compounds, 0.02% hits; in the data active means activity change below about -50%; inconclusive means about -30% to -50%; inactive means above about -30%;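 further: stimulus is agonist 54-4 at its EC80 concentration; on the % scale 0 is the no-effect control and ±100 the full control effect; compound concentration not given in the record; the text of the record puts the active cut at -80%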
Target sequence (Q9GZU1 whole entry, looked up): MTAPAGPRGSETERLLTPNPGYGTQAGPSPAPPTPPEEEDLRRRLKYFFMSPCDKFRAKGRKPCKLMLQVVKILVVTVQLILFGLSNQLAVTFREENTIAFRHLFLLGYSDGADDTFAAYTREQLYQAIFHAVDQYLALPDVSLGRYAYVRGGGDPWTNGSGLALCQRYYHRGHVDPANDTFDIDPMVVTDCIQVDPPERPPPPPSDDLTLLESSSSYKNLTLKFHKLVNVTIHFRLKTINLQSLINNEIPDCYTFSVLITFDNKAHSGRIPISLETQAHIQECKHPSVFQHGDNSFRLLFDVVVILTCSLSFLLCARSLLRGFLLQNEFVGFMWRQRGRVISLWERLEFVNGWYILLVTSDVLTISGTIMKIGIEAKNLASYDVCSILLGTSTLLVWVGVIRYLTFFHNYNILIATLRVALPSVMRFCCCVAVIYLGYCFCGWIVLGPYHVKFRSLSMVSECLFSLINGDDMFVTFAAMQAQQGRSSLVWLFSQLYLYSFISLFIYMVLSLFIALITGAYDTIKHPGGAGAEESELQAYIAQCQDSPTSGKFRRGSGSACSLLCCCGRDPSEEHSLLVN
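TRPML1-DL cells, Tet-induced overnight (~16 h, 37 °C) at 1,500 cells/well, were loaded with Ca8 no-wash dye plus quencher for 45-90 min at room temperature. Compounds were pinned during FDSS kinetic reading; agonist 54-4 at EC80 (4 uM final) then added.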
TRPML1 agonist – qHTS for Agonists of the Human Mucolipin Transient Receptor Potential 1 (TRPML1) | Mucolipin-1 (Homo sapiens), Q9GZU1 | TRPML1-expressing cells, Ca2+ dye fluorescence, FDSS; host cell line not named in the record; reference of the full effect not given here | activation, % (no concentration beside the values) | 410,000 compounds, 0.12% hits | AID 624414, 2012; in the data active = activation above about 50%; inconclusive = about 30% to 50%; inactive = below about 30%; further: 0% is about no effect; the text of the record puts the active cut at 80%
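Kinetic FDSS Ca2+ read in Tet-induced TRPML1-DL cells (ABD Ca8 dye plus quencher, 45-90 min RT loading): baseline, then compound, then 110 s agonist window; EC80 agonist 54-4 at 4uM final added afterwards for a 110 s antagonist window.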
gsp agonist – qHTS for Agonist of gsp, the Etiologic Mutation Responsible for Fibrous Dysplasia/McCune-Albright Syndrome: qHTS; 340,000 compounds, 0.13% hits; AID 624287, 2012; Potency, µM (titrated, usually from 76.9 µM), inactives show top-dose activation (cAMP increase), hits mostly activators; gsp mutant cells, cAMP HTRF, 30 min; control for the full effect not named in the record; active = well fitted activation curve with a large enough effect; inconclusive = small, poorly fitted or top-dose-only effect, or another doubt; inactive = no such curve, though single readings can be large or run the other way; cell line not stated here;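 further: phosphodiesterase inhibitor Ro 20-1724 added with compounds to block cAMP breakdown; potency means the concentration at half of the fitted maximal effect; nearly all actives have a fitted effect of over 60% in size; about a fifth of the inactives were tested at one dose only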
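Cells stably selected in G418 were plated at 2000/well, grown 16-24 hr, then given compounds in DMSO with the PDE inhibitor […] (300 uM solution added) for 30 min at 37C; cAMP was read by HTRF.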
* marks the source's active call; other numbers are inactive results; ? = inconclusive; / = not tested or not shown; & = joins results of further samples; [ ] = remark or other dose. Rows are unselected. About 2.1% of those tested had a hit in this group.

Each structure is followed by: gsp antagonist, ClpP mod, Menin MLL FP FL, TRPML1 agonist, TRPML1 blocker, gsp agonist
> C[C@H]1CC[C@]2(O[C@H](CCO)C[C@@H](O)[C@@H]2O)O1
→ -1.9%, -2.1%, -1.2, -0.4, -6.4, /
> COc1ccc(CNC(=O)COC(=O)/C=C/c2cccs2)cc1
→ 3.4%, 2.5%, 5.8, 0.7, 1.5, 25.5%
> c1ccc(-c2nnc(CSc3nncs3)o2)cc1
→ 3.0%, -2.5%, -1.4, -0.5, 1.7, 11.0%
> O=c1[nH][nH]c(=O)c2cc(N3CCCC3)ccc12
→ -12.2%, ?, -1.9, -0.2, -1.9, -32.8%[inhibitor]
> Cn1nc(C(=O)Nc2ccccc2N2CCCC2)c2ccccc2c1=O
→ -13.8%, -0.2%, /, 2.0, -11.9, 15.7%
> CCOC(=O)C1CCN(C(=O)CCS(=O)(=O)c2ccc3c(c2)CCN3C(=O)CC)CC1
→ 4.2%, 20µM*, -3.1, 0.2, -11.9, 19.0%
> O=C(CC(Cc1ccccc1)c1ccco1)NC1CCCCC1 (stereo unspecified)
→ ?, 0.8%, -2.0, 3.0, -3.4, 3.1%
> O=C(Nc1ccc(S(=O)(=O)Nc2ncccn2)cc1)c1ccc(Br)cc1
→ /, 0.3%, /, 0.6, 7.5, ?
> CS(=O)Cc1cc(Oc2ccccc2)nc(-c2ccncc2)n1 (stereo unspecified)
→ 0.2%, /, 0.1, 0.7, -5.5, 7.1%[15.4 µM]
> CCOC(=O)c1c(C)nc(C(Cl)(Cl)Cl)nc1N
→ 6.3%, -0.5%, -3.1, 0.7, -3.4, 3.7%
> Cc1ccc(SCC(=O)NC(=O)Nc2ccc3c(c2)OCCO3)cc1C
→ 1.4%, 1.1%, -0.5, -0.3, -4.9, -17.9%
> CCOc1ccc(NC(=O)COC(=O)c2ccc3c(c2)OCO3)cc1
→ 3.1%, -5.4%, /, -0.7, 3.1, ?
> NC1=C([N+](=O)[O-])C(c2ccc3c(c2)OCO3)C2=C(CCCC2=O)O1 (stereo unspecified)
→ -27.3%, 0.4%, -1.0, 0.6, -5.3, -12.0%
> O=C(Nc1ccc2c(c1)OCO2)C1CCN(Cc2cnn(-c3ccccc3)c2-n2cccc2)CC1
→ -0.4%, -0.1%, 4.5, 1.2, 10.7, -39.1%[inhibitor]
> Fc1cccc(Cc2c(-c3ccccc3)nc3ccc(Br)cn23)c1
→ /, -5.9%, /, 3.9, 32.0, /
> COC(=O)C1=CN(c2ccc(F)c(F)c2)C=C(C(=O)OC)C1c1ccc([N+](=O)[O-])cc1
→ 3.3%, /, -7.2, -0.2, 4.7, -17.7%
> O=C(Nc1ccc2c(c1)OCO2)c1ccc[n+]([O-])c1
→ 6.5%, -1.4%, 4.8, -0.4, 0.2, -12.8%
> Cc1cccc(NC(=O)c2ccc(COc3ccc4ccccc4c3)o2)n1
→ -9.2%, -22.7%, 5.4, 0.7, 10.2, -25.9%
> CSc1ncccc1C(=O)OCC(=O)N1CC(=O)Nc2ccccc21
→ 1.0%, -2.6%, /, 1.2, 5.3, 3.7%
> O=C(NCc1ccccn1)C(=O)NCC1OCCN1S(=O)(=O)c1ccc(Br)cc1 (stereo unspecified)
→ -6.4%, -0.7%, /, 0.0, -10.5, -56.7%[inhibitor]
> CCOc1ccc(NC(=O)CN(c2cccc(C(F)(F)F)c2)S(C)(=O)=O)cc1
→ -18.1%, -0.7%, -0.2, -0.1, -10.7, -21.7%
> O=C(CSc1ccccc1)N1CCCC(N2CCN(c3ccc(F)cc3)CC2)C1 (stereo unspecified)
→ 2.1%, -3.9%, /, -0.6, 5.8, 9.3%
> O=C(Cn1nc(Cc2ccncc2)c2ccccc2c1=O)Nc1cccc(C(F)(F)F)c1
→ /, -0.8%, /, 1.1, 41.0, /
> COc1ccccc1NC(=O)c1sc(-c2ccc(Cl)cc2)cc1N
→ /, ?, /, -0.2, 6.2, /
> COC(=O)c1c(NC(=O)c2ccccc2)sc(Cc2ccccc2)c1C
→ 5.6%, -2.4%, 3.1, -0.1, 3.5, 0.7%
> COc1ccc(NC(=O)c2cc(C3CC3)nc3c2cnn3C(C)C)cc1OC
→ -3.3%, -15.2%, /, -0.4, -4.5, -2.3%
> O=C(NCCc1cn2ccccc2n1)c1cc(COc2ccc3ncccc3c2)on1
→ -108.1%, /, 5.0, -1.1, 9.3, -11.4%[15.4 µM]
> O=C(CSc1ccccc1)Nc1ccc(N2CCOCC2)c(F)c1
→ -8.4%, 0.5%, /, -0.1, 0.3, 5.7%
> C=CCn1c(COc2ccccc2F)nnc1SCC(=O)NC(=O)NCc1ccco1
→ -8.0%, -1.6%, 0.7, -0.4, -6.3, -42.0%[inhibitor]
> Cn1c(/C(C#N)=C/c2cccc(O)c2)nc2ccccc21
→ /, /, 1.7, 1.8, -1.8, 1.4%[15.4 µM]
> COc1ccccc1CNC(=O)Cn1c(=O)oc2cc(S(=O)(=O)N3CCCC3)ccc21
→ -0.9%, -0.3%&0.1%, -6.1, -0.9&1.0, -1.6&-10.7, -45.1%[inhibitor]
> NS(=O)(=O)c1ccc(NC(=S)NNC(=O)c2cccs2)cc1
→ 3.6%, /, 1.5, 0.8, 12.9, -27.3%[15.4 µM]
> COc1ccc(C(=O)COC(=O)[C@H](C)NS(=O)(=O)c2ccc(NC(C)=O)cc2)cc1OC
→ 1.0%, -0.5%, /, 6.0, -8.3, -34.4%[inhibitor]
> CCCCNC(=O)CSc1nnc(-c2ccc(S(=O)(=O)N3CCCC3)cc2)n1C
→ -4.9%, -19.4%, -0.2, 0.2, 17.7, -41.8%[inhibitor]
> O=C1[C@H]2[C@H](ON3CCCC[C@H]23)C(=O)N1c1cccc(C(F)(F)F)c1
→ 5.6%, /, -6.2, -0.4, 5.0, -1.3%[15.4 µM]
> O=C(CN1C(=O)S/C(=C\c2ccccn2)C1=O)Nc1ccccc1
→ 2.8%, 0.1%, /, 0.3, -8.3, 17.2%
> COc1ccc([C@H]2CC(=O)C=C(c3cc(F)ccc3OC)C2)cc1
→ -10.4%, -3.9%, /, 4.3, 14.3, -41.4%[inhibitor]
> Cc1nn(C(C)C(=O)O)c(C)c1[N+](=O)[O-] (stereo unspecified)
→ 6.4%, /, 0.1, 1.8, -9.7, -3.7%
> O=C(NCc1ccccc1Cl)c1cc2cccc3c2n1CCS3
→ /, 28.2µM*, /, 3.5, 38.5, /
> Cc1ccc([C@H]2C(C(=O)O)=CC[C@@H](c3ccc(C)cc3)N2S(=O)(=O)c2ccc(C)cc2)cc1
→ -13.4%, 2.3%, /, -0.3, -0.4, /
> CC(=O)Nc1ccc(C(=O)n2nc(C)cc2C)cc1
→ -5.6%, 0.7%, 3.6, 0.1, -4.2, 7.8%
> CCOC(=O)C1(Cc2cccc(OC)c2)CCN(Cc2cccn2-c2nccs2)CC1
→ -4.5%, /, -3.6, 1.5, 45.5, 17.8%
> CCC(Sc1nc2ncccc2[nH]1)C(=O)NC1CCCC1 (stereo unspecified)
→ 8.0%, -1.4%, -1.8, -0.4, 29.8, 12.5%
> N=c1n(CC(=O)c2ccc([N+](=O)[O-])cc2)c2ccccc2n1Cc1ccc(Cl)cc1
→ -13.0%, 0.8%, 2.2, 0.5, -13.6, -16.2%
> O=C(NC(=O)c1c(Cl)cccc1Cl)Nc1ccc(Oc2cccnc2)nc1
→ 1.9%, 0.2%, -6.3, -0.5, 5.9, 5.0%[15.4 µM]
> Cc1nnc(SCC(=O)NCC2CCCO2)n1-c1ccccc1 (stereo unspecified)
→ 7.8%, 0.2%, 2.2, -0.8, 1.4, ?
> COc1cccc(C(C(=O)NC(C)(C)C)N(C(=O)CCC(=O)Nc2cc(C)on2)c2ccc3c(c2)OCCO3)c1OC (stereo unspecified)
→ 9.0%, -0.4%, -5.3, -1.1, -6.0, -1.2%[15.4 µM]
> COc1ccc(Nc2ccccc2NC(=O)c2ccccc2Br)cc1
→ -1.2%, -0.6%, -3.3, -0.9, 4.8, 12.0%[15.4 µM]
> CCCCCC1CCC(c2n[nH]c(=S)n2C)CC1 (stereo unspecified)
→ -13.9%, /, 4.2, 2.4, 0.9, -5.5%[15.4 µM]
> COc1ccc2[nH]c(=O)c(CN(CCO)S(=O)(=O)c3c(C)ccc4nsnc34)cc2c1
→ -0.7%, -3.7%, 1.3, 0.8, -4.8, 0.8%
> COC(=O)c1cc(S(=O)(=O)NCC2CCN(CCc3cccs3)CC2)c[nH]1
→ 7.7%, -0.3%, 8.7, -0.2, 7.8, ?
> COc1ccc(N)c2c1C(=O)c1ccccc1C2=O
→ -33.0%, -2.5%, 1.3, 1.5, -7.7, 3.8%[15.4 µM]
> COc1ccc(-c2csc(N3CCN(c4cc5c(cc4Cl)nc(-c4ccncc4)n5CCOCCO)CC3)n2)cc1
→ -4.1%, -3.7%, 8.5, 4.7, -27.3, ?
> Cc1ccc(C(=O)Nc2nnc(CC(=O)N/N=C/c3ccc(O)c(O)c3)s2)cc1
→ -6.3%, -2.5%, -4.4, -0.1, 6.1, ?
> CCc1ccc2[nH]c(=O)c(CN(CCN(C)C)C(=S)NCc3ccco3)cc2c1
→ 2.8%, /, 0.0, 1.5, -9.3, -14.0%
> NC(=O)C1CCN(C(=O)c2ccc(Oc3cc(Cl)cc(Cl)c3)o2)CC1
→ -2.8%, 0.9%, 4.7, 0.0, ?, -5.7%
> Cn1c(C(=O)NC2CC2)cc2c(=O)n(C)c3ccccc3c21
→ -2.4%, ?, -3.0, 0.9, 17.4, 4.4%
> COc1ccc(C2=NO[C@@H]3C(=O)N(C4CCCCC4)C(=O)[C@H]23)cc1OC
→ 5.0%, 20.1%, -0.7, -1.0, 0.3, 6.1%
> O=C(Nc1ccccc1)N1CCCN(c2nccc(C(F)(F)F)n2)CC1
→ -0.6%, /, 1.2, 1.4, -10.4, 19.0%
> COC1=CC(=O)c2c(ccc3ncnc(N)c23)C1=O
→ -25.1%, 0.4%, /, 0.0, 1.9, 25.4%
> CC(C)Cn1c(SCC(=O)N2CCN(C(=O)c3ccco3)CC2)nc2ccccc2c1=O
→ 8.6%, -0.1%, -2.0, 0.6, 10.2, -23.2%
